# GAA spleen mod: qHTS Assay for Inhibitors and Activators of Human alpha-Glucosidase From Spleen Homogenate | 240,000 tested, 0.006% active | human spleen homogenate, 4-MU-alpha-glucoside fluorescence | Lysosomal alpha-glucosidase (Homo sapiens), P10253 | Potency, µM (series often up to 79.9 µM), without a hit: at the top dose activity change, negative = inhibition, hits mostly inhibitors;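 note: 0% = enzyme with vehicle and -100% = no enzyme basal signal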
#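 Human spleen homogenate (1 ug) with 4-methylumbelliferyl-alpha-D-glucopyranoside (1 mM final) in 50 mM citrate/phosphate pH 5.0, 0.01% Tween-20; 40 min at 37 C. Stopped at pH 10; 4-MU fluorescence Ex 365/Em 440 nm; AC50 by Hill fit.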
# GAA glycogen: qHTS Assay for Inhibitors and Activators of Human alpha-Glucosidase Cleavage of Glycogen; 300,000 tested, 0.38% active; Lysosomal alpha-glucosidase (Homo sapiens), P10253; Potency, µM (top dose mostly 76.4 µM), inactives show at the top dose activity change, negative = inhibition, most hits filed as inhibitors; AID 2100, 2009; recombinant GAA, glycogen substrate, Amplex Red glucose oxidase fluorescence;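 note: 0% = full enzyme reaction and -100% = no-enzyme basal signal; the screen sought inhibitors and activators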
#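 qHTS, 1536-well; enzyme 4 nM final; cpd up to 77 uM; substrate bovine liver glycogen 30 ug; 50 mM citrate/phosphate pH 5.0, 0.01% Tween-20; 37 C, 40 min; Amplex Red detection 45 min RT; Hill fit → AC50.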
# HTT aggregate: qHTS Multiplex Assay to Identify Dual Action Probes in a Cell Model of Huntington: Aggregate Formation (GFP); AID 1688, 2009; Potency, µM (highest dose often 46.1 µM), for inactives: top-dose activity change, negative = inhibition, most hits filed as inhibitors; 220,000 tested, 1.1% active; PC12 HttQ103-GFP aggregates, Acumen cytometry, 40 h; note: % is set by controls: 0 for no effect and ±100 for the full control effect; nearly all actives have a fitted effect of over 60% in size
#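 Inducible Q103 Huntingtin exon 1–GFP PC12 line, 1500 cells/well in phenol red free DMEM with 5% equine and 5% calf serum. Tebufenozide 100 nM induced expression; compounds titrated; aggregates quantified by cytometry.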
# HTT cytoprotect: qHTS Multiplex Assay to Identify Dual Action Probes in a Cell Model of Huntington: Cytoprotection (ATP). PC12 HTT-Q103 induced, cytoprotection, ATP luminescence, 40 h. Potency, µM (series often up to 56.4 µM), without a hit: cytoprotection (ATP increase), hits mostly activators. 230,000 tested, 0.14% active. AID 1471, 2008;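 note: % of control where 0% means no effect; nearly all actives have a fitted effect of over 45% in size; toxic huntingtin expression switched on by the ecdysone agonist tebufenozide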
#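 Huntington model: PC12 line, ecdysone-inducible HTTQ103 exon1–GFP, tebufenozide 100 nM. Test articles in a dose series. Endpoint luminescence from cellular ATP.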
# IMPase Li inh: qHTS Assay for Identifying the Cell-Membrane Permeable IMPase Inhibitors: Potentiation with Lithium. CHO-M1 cells, IP1 TR-FRET (IP-One), carbachol + lithium. Potency, µM (top dose mostly 59.4 µM), inactives show at the highest dose activity, negative = IMPase inhibition, actives largely listed as inhibitors. 210,000 tested, 0.35% active;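 note: IP1 builds up when IMPase is blocked and the TR-FRET signal falls; plate controls were basal vehicle for no effect and high inhibitor control for full effect; nearly all actives have a fitted effect of over 50% in size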
#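 CHO cells stably expressing M1 receptor (2000/well) were cultured 16–30 h, then exposed to compounds with a small lithium addition for 30 min at 37C. IP1 was measured by TR-FRET competition; AC50 from Hill fits.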
# GAA inh: qHTS Assay for Inhibitors of Human alpha-Glucosidase as a Potential Chaperone Treatment of Pompe Disease | Lysosomal alpha-glucosidase (Homo sapiens), P10253 | purified human GAA, 4-MU-alpha-glucoside fluorescence | Potency, µM (top dose mostly 76.9 µM), for inactives: at the top dose activity change, negative = inhibition, hits mostly inhibitors | 200,000 tested, 0.005% active;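 note: plate controls were uninhibited enzyme wells for no effect and no-enzyme background for full effect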
#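 Human enzyme at 4 nM with 400 uM 4-methylumbelliferyl-alpha-D-pyranoside, citrate/phosphate buffer pH 5.0, 0.005% Tween-20, 20 min at room temperature. Compounds up to 77 uM. 4-MU fluorescence (Ex 365/Em 440) read after NaOH/glycine stop; AC50 from Hill fit.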
# Active calls of the source: *; ? = inconclusive; nt = no result given; & = joins results of further samples; [ ] = another dose, or the depositor's remark. Calls come from the whole dose curve; as a rule, active = well fitted curve in the direction sought with a large enough effect; inconclusive = small, poorly fitted or top-dose-only effect, or another doubt; inactive = no such curve, though single readings can be large; an effect the other way counts as inactive or inconclusive. Potency is the fitted concentration of half-maximal effect.
SMILES,GAA spleen mod,GAA glycogen,HTT aggregate,HTT cytoprotect,IMPase Li inh,GAA inh
COc1ccccc1NC(=O)CN1CCC(n2c(C)nc3cc(F)ccc32)CC1,-11.9%,-9.6%,-15.7%,-27.0%[10 µM],13.6%[38.3 µM],-6.4%
O=C(Nc1cccc(-c2nc3ccccc3[nH]2)c1)c1ccco1,4.2%,1.2%,23.0%,-25.5%,6.1%[38.3 µM],0.8%
Cc1ccc(S(=O)(=O)N2CCOCC2)cc1NC(=O)COC(=O)C1COc2ccccc2O1 (stereo not given),-5.2%,-1.3%,3.5%,-21.8%[10 µM],-2.1%,-2.6%
Cc1ccc(-n2c(=O)cc(N3CC(C)OC(C)C3)[nH]c2=O)cc1 (stereo not given),1.8%,4.7%,-4.4%,?,-14.7%,1.3%
N#CC1=C2SCN(c3ccccc3)CN2C(=O)CC1c1ccccc1Cl (stereo not given),-0.6%,-2.0%,0.1%,-12.5%,8.5%[38.3 µM],-12.7%
Cc1c(NC(=O)c2cc(-n3cnnc3)ccc2Cl)cccc1-c1nc2ccccc2o1,-2.2%,-1.1%,-6.0%,-26.2%[1.9 µM],2.9%,-0.5%
Cc1ccc(-n2c(SCC(=O)Nc3cc(C)on3)nc3c(c2=O)SC(C)C3)cc1 (stereo not given),4.8%,-3.2%,-3.1%,-20.8%[10 µM],22.5%[38.3 µM],-1.0%
N/C(=N\OC(=O)c1ccco1)c1cccc(Br)c1,-2.4%,0.8%,3.6%,-47.4%[inhibitor][10 µM],21.4%[38.3 µM],-10.5%
COc1ccc(CN(C2CCCCC2C)S(=O)(=O)c2ccc(S(=O)(=O)N(C)C)cc2)cc1OC (stereo not given),-5.0%,5.3%,3.6%,28.4%[10 µM],2.7%,1.1%
O=C(Nc1ccc2oc(=O)ccc2c1)c1cccnc1Cl,-15.4%,1.3%,-2.8%,7.8%,-10.2%[38.3 µM],5.5%
O=C(Nc1nnc(CCN2CCCCC2)s1)c1ccc(Cl)cc1Cl,-6.0%,4.4%,-8.9%[9.22 µM],5.9%[10 µM],nt,nt
Cc1ccc2nc(NC(=O)CSc3nc4c(c(=O)n3C)SC(C)C4)sc2c1 (stereo not given),0.7%,-5.7%,?,29.1%,21.5%[38.3 µM],-8.6%
COC(=O)c1ccc2ccn(CC(=O)NC(C)C)c2c1,8.4%,-0.8%,-8.5%,1.3%,-16.7%[38.3 µM],-5.0%
Oc1cccc2ccc(/C=C/c3ccc(Br)s3)nc12,11.6%,7.1%,?,-22.2%,-7.1%,12.4%
CNC(=O)[C@@]1(Cc2ccccc2)C=C[C@@H](C)N1C(C)=O,0.9%,nt,nt,6.8%,-12.1%,nt
OC(CN1CCc2ccccc2C1)c1ccccc1 (stereo not given),2.7%,1.4%,-4.4%,-22.1%,5.0%,1.1%
CC1Cc2nc(SCC(=O)N3CCCc4ccccc43)n(C)c(=O)c2S1 (stereo not given),-7.9%,-5.4%,?,30.3%[10 µM],7.5%,-9.1%
Cc1ccc(-c2csc3nnc(SCC(=O)N4CCN(Cc5ccccc5)CC4)n23)cc1,-3.6%,10.3%,-1.3%,-27.6%,10.4%[38.3 µM],-2.9%
CCn1c(CSc2ncn[nH]2)nc2cc(C(=O)O)ccc21,3.9%,5.5%,-5.7%[9.22 µM],-5.5%[10 µM],nt,8.5%
CN(c1ccccc1)S(=O)(=O)c1ccc(C(=O)OCC(=O)NC(N)=O)cc1,0.5%,-14.7%,-17.3%[9.22 µM],1.7%[10 µM],nt,nt

# For convenience, some entries already given.
SMILES,GAA spleen mod,GAA glycogen,HTT aggregate,HTT cytoprotect,IMPase Li inh,GAA inh
COc1ccc(CN(C2CCCCC2C)S(=O)(=O)c2ccc(S(=O)(=O)N(C)C)cc2)cc1OC (stereo not given),-5.0%,5.3%,3.6%,28.4%[10 µM],2.7%,1.1%
O=C(Nc1ccc2oc(=O)ccc2c1)c1cccnc1Cl,-15.4%,1.3%,-2.8%,7.8%,-10.2%[38.3 µM],5.5%
O=C(Nc1nnc(CCN2CCCCC2)s1)c1ccc(Cl)cc1Cl,-6.0%,4.4%,-8.9%[9.22 µM],5.9%[10 µM],nt,nt
Cc1ccc2nc(NC(=O)CSc3nc4c(c(=O)n3C)SC(C)C4)sc2c1 (stereo not given),0.7%,-5.7%,?,29.1%,21.5%[38.3 µM],-8.6%
COC(=O)c1ccc2ccn(CC(=O)NC(C)C)c2c1,8.4%,-0.8%,-8.5%,1.3%,-16.7%[38.3 µM],-5.0%
Oc1cccc2ccc(/C=C/c3ccc(Br)s3)nc12,11.6%,7.1%,?,-22.2%,-7.1%,12.4%
CNC(=O)[C@@]1(Cc2ccccc2)C=C[C@@H](C)N1C(C)=O,0.9%,nt,nt,6.8%,-12.1%,nt
OC(CN1CCc2ccccc2C1)c1ccccc1 (stereo not given),2.7%,1.4%,-4.4%,-22.1%,5.0%,1.1%
CC1Cc2nc(SCC(=O)N3CCCc4ccccc43)n(C)c(=O)c2S1 (stereo not given),-7.9%,-5.4%,?,30.3%[10 µM],7.5%,-9.1%
Cc1ccc(-c2csc3nnc(SCC(=O)N4CCN(Cc5ccccc5)CC4)n23)cc1,-3.6%,10.3%,-1.3%,-27.6%,10.4%[38.3 µM],-2.9%
CCn1c(CSc2ncn[nH]2)nc2cc(C(=O)O)ccc21,3.9%,5.5%,-5.7%[9.22 µM],-5.5%[10 µM],nt,8.5%
CN(c1ccccc1)S(=O)(=O)c1ccc(C(=O)OCC(=O)NC(N)=O)cc1,0.5%,-14.7%,-17.3%[9.22 µM],1.7%[10 µM],nt,nt

# Remaining list, next part:
SMILES,GAA spleen mod,GAA glycogen,HTT aggregate,HTT cytoprotect,IMPase Li inh,GAA inh
CN(c1ccccc1)c1nc(N)c([N+](=O)[O-])c(N2CCOCC2)n1,-2.0%,-5.6%,0.9%[9.22 µM],11.8%[10 µM],nt,-0.2%[15.4 µM]
Cn1c(SCC(=O)N2CCOCC2)nnc1-c1ccc(NC(=O)c2ccccc2F)cc1,-14.1%,-8.8%,11.2%,-13.2%,-7.0%[38.3 µM],1.0%
CC(=O)N1[C@H](C)C=C[C@]1(Cc1ccccc1)C(=O)NCCc1c[nH]c2ccccc12,-20.5%,-16.3%[76.3 µM],nt,-81.3%[inhibitor],-1.0%,nt
CC(NS(=O)(=O)c1ccc([N+](=O)[O-])cc1)C(=O)NN (stereo not given),6.6%,-9.4%,4.9%,-9.0%[10 µM],-1.6%,-0.2%
CN1CCN(CCC=C2c3ccccc3Sc3ccc(S(=O)(=O)N(C)C)cc32)CC1,3.0%&0.2%,nt,?,-129.8%[inhibitor],20.4%&25.9%,nt
O=C(CSc1nnc(COc2ccc(F)cc2)o1)N1c2ccccc2CCc2ccccc21,-4.5%,-11.1%,?,-52.3%[inhibitor],5.4%[38.3 µM],-18.8%
Cc1ccc(CNC(=O)CSc2ncccn2)cc1,-9.6%,-1.8%,-0.4%,-17.2%[0.074 µM],-3.0%[38.3 µM],-3.5%
C/C(=N\NC(=O)c1ccc(NS(=O)(=O)c2cccs2)cc1)c1ccc2ccccc2c1,-1.7%,-5.6%,-12.7%,-18.5%[10 µM],14.3%,-3.1%
COc1cc(CNC2CCCCCC2)cc(OC)c1,8.4%,0.4%,0.1%[9.22 µM],-3.4%,22.6%[38.3 µM],-2.4%
CN(Cc1ccco1)c1cc(-c2ccoc2)ncn1,7.7%,nt,nt,7.2%,5.7%,nt
CCn1c(SCC(=O)Nc2cccc(F)c2)nc2c(c1=O)SC(C)C2 (stereo not given),-21.8%,-3.6%,-12.4%,-1.4%,13.4%,-12.6%
CCC(NS(=O)(=O)c1c(C)[nH]c(=O)[nH]c1=O)C12CC3CC(CC(C3)C1)C2 (stereo not given),-5.2%,-2.2%,-16.1%,22.2%,19.8%[38.3 µM],-2.2%
O=C(CNc1cc(S(=O)(=O)N2CCCC2)ccc1OCC(F)(F)F)Nc1cc(Cl)cc(Cl)c1,-0.4%,0.1%,-10.2%,-2.0%,2.2%,7.9%
O=C(Nc1nccs1)c1cn2ccccc2n1,6.6%,9.2%,10.7%[9.22 µM],-67.4%[inhibitor][10 µM],nt,nt
N=c1c2cn[nH]c2nc(SCC(=O)c2ccc(Br)cc2)n1-c1ccc(Br)cc1,2.1%,-27.5%,4.5%,5.0%,?,5.1%
Cc1ccccc1C(=O)N1CCN(c2nc(N3CCOCC3)nc(N3CCOCC3)n2)CC1,1.9%,4.8%,?,-11.0%,2.6%[38.3 µM],0.2%

# The list is partial. The share of hits here may be higher or lower than overall.
